# NOMO-1 viab: STK33 inhibitor candidate reducing NOMO-1 cell viability. 37,000 tested, 7.5% active. inhibition, % (concentration not given with the values). AID 2330. NOMO-1 AML viability, CellTiter-Glo luminescence, 72 h;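 active = most replicates above 80%; inconclusive = exactly half above 80%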;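 also: wells of about 30 µL received 25 nL stock; 0% = median of vehicle wells and 100% = reference inhibitor level; the first replicate is given; inactives centre near 10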
# Numbers without * were called inactive; ? = inconclusive.
SMILES,NOMO-1 viab
CCOC(=O)C1CN(Cc2ccccc2)C(=O)C1=O (centres undefined),12
CCOc1ccc(NC(=O)CSc2nnc(-c3cc(Cl)ccc3O)n2C)cc1,-10
Cc1ccc(S(=O)(=O)Nc2ccc3c(c2)C(=O)N([C@H](C)CO)C[C@H](C)[C@H](CN(C)S(=O)(=O)c2cn(C)cn2)OCCCC[C@@H](C)O3)cc1,-8
CCC(C)CC(C)/C=C\C1OC2=C(C(=O)OC2(C)O)C(O)C1O (centres undefined),108*
O=C(CN1C(=O)c2ccccc2S1(=O)=O)Nc1ccc(N2CCOCC2)cc1,1
CNC[C@@H]1Oc2ccc(NC(=O)Cc3cn(C)c4ccccc34)cc2C(=O)N([C@H](C)CO)C[C@@H]1C,6
Cc1noc(C)c1NC(=O)N(C)C[C@@H]1Oc2ccc(NC(=O)c3ccncc3)cc2C(=O)N([C@H](C)CO)C[C@@H]1C,8
COC(=O)c1ccc(NC(=O)CSc2nnc(-c3ccccc3F)n2C)cc1,17
COc1cccc(NC(=O)COc2ccc(C(=S)N3CCN(C)CC3)cc2OC)c1,28
Cn1nnnc1SCC(=O)Nc1ccccc1C(N)=O,-4
C[C@@H]1CN([C@H](C)CO)C(=O)Cc2cc(NS(=O)(=O)c3ccc(F)cc3)ccc2O[C@H]1CN(C)C(=O)Nc1ccccc1,12
C[C@@H]1CN([C@H](C)CO)C(=O)Cc2cc(NS(=O)(=O)c3cn(C)cn3)ccc2O[C@H]1CN(C)C,15
COc1ccccc1OCC(=O)Nc1cccc(-c2nnc(-c3ccccc3)o2)c1,-19
CNC[C@@H]1Oc2ccc(NC(=O)Nc3c(C)noc3C)cc2CC(=O)N([C@@H](C)CO)C[C@@H]1C,10
CCC(c1nc2ccccc2c(=O)n1-c1ccccn1)N1C(=O)c2ccccc2C1=O (centres undefined),16
Cc1noc(C)c1NC(=O)Nc1ccc2c(c1)CC(=O)N([C@@H](C)CO)C[C@@H](C)[C@@H](CN(C)Cc1ccc(Oc3ccccc3)cc1)O2,38
CC(=O)Nc1cccc(NC(=O)c2cccc(Cn3cc(Cl)cn3)c2)c1,16
Cc1nc(N=C(N)N)nc2ccccc12,89*
CC1=CC(=O)OC(c2ccccc2)C1 (centres undefined),2
C[C@H]1CN([C@@H](C)CO)C(=O)Cc2cc(NC(=O)CCN3CCOCC3)ccc2O[C@@H]1CN(C)S(C)(=O)=O,-9
COc1ccc(NC(=O)Nc2cccc3c2O[C@H](CN(C)Cc2ccc(C(F)(F)F)cc2)[C@@H](C)CN([C@H](C)CO)C3=O)cc1,106*
Cc1ccc(Cl)cc1N(CC(=O)Nc1cccc([N+](=O)[O-])c1C)S(C)(=O)=O,55
C[C@@H]1O[C@@H](O[C@H]2[C@H](OC(=O)[C@]34CCC(C)(C)C[C@H]3C3=CCC5[C@@]6(C)C[C@H](O)[C@H](O[C@@H]7O[C@H](CO)[C@@H](O)[C@H](O)[C@H]7O)[C@@](C)(CO)C6[C@H](O)C[C@@]5(C)[C@]3(C)CC4)OC[C@H](O)[C@@H]2O)[C@H](O)[C@H](O)[C@H]1O[C@@H]1OC[C@@H](O)[C@H](O[C@@H]2OC[C@](O)(CO)[C@H]2O)[C@H]1O (some centres undefined),55
C[C@H]1CN([C@@H](C)CO)C(=O)Cc2cc(NC(=O)C3CCCCC3)ccc2O[C@@H]1CN(C)CC1CC1,13
Cc1ccc(S(=O)(=O)Nc2ccc3c(c2)C(=O)N([C@@H](C)CO)C[C@H](C)[C@H](CN(C)S(C)(=O)=O)O3)cc1,13
C[C@@H]1CN([C@H](C)CO)C(=O)Cc2cc(NC(=O)NC3CCCCC3)ccc2O[C@@H]1CN(C)S(C)(=O)=O,24
C/C=C(\C)C(=O)OC1CCC(=O)OC1/C=C/C(O)C(C)O (centres undefined),19
C[C@H](CO)N1C[C@H](C)[C@H](CN(C)S(=O)(=O)c2ccc(F)cc2)Oc2ccc(NS(=O)(=O)c3ccccc3)cc2C1=O,7
C[C@H]1CN([C@@H](C)CO)C(=O)Cc2cc(NC(=O)Nc3ccc(C(F)(F)F)cc3)ccc2O[C@@H]1CN(C)Cc1ccc2c(c1)OCO2,5
CCOc1ccc2nc(SCC(=O)Nc3ccc([N+](=O)[O-])cc3)[nH]c2c1,1

# Not a retest: an excerpt of the list.
SMILES,NOMO-1 viab
C[C@H]1CN([C@@H](C)CO)C(=O)Cc2cc(NC(=O)CCN3CCOCC3)ccc2O[C@@H]1CN(C)S(C)(=O)=O,-9
COc1ccc(NC(=O)Nc2cccc3c2O[C@H](CN(C)Cc2ccc(C(F)(F)F)cc2)[C@@H](C)CN([C@H](C)CO)C3=O)cc1,106*
Cc1ccc(Cl)cc1N(CC(=O)Nc1cccc([N+](=O)[O-])c1C)S(C)(=O)=O,55
C[C@@H]1O[C@@H](O[C@H]2[C@H](OC(=O)[C@]34CCC(C)(C)C[C@H]3C3=CCC5[C@@]6(C)C[C@H](O)[C@H](O[C@@H]7O[C@H](CO)[C@@H](O)[C@H](O)[C@H]7O)[C@@](C)(CO)C6[C@H](O)C[C@@]5(C)[C@]3(C)CC4)OC[C@H](O)[C@@H]2O)[C@H](O)[C@H](O)[C@H]1O[C@@H]1OC[C@@H](O)[C@H](O[C@@H]2OC[C@](O)(CO)[C@H]2O)[C@H]1O (some centres undefined),55
C[C@H]1CN([C@@H](C)CO)C(=O)Cc2cc(NC(=O)C3CCCCC3)ccc2O[C@@H]1CN(C)CC1CC1,13
Cc1ccc(S(=O)(=O)Nc2ccc3c(c2)C(=O)N([C@@H](C)CO)C[C@H](C)[C@H](CN(C)S(C)(=O)=O)O3)cc1,13
C[C@@H]1CN([C@H](C)CO)C(=O)Cc2cc(NC(=O)NC3CCCCC3)ccc2O[C@@H]1CN(C)S(C)(=O)=O,24
C/C=C(\C)C(=O)OC1CCC(=O)OC1/C=C/C(O)C(C)O (centres undefined),19
C[C@H](CO)N1C[C@H](C)[C@H](CN(C)S(=O)(=O)c2ccc(F)cc2)Oc2ccc(NS(=O)(=O)c3ccccc3)cc2C1=O,7
C[C@H]1CN([C@@H](C)CO)C(=O)Cc2cc(NC(=O)Nc3ccc(C(F)(F)F)cc3)ccc2O[C@@H]1CN(C)Cc1ccc2c(c1)OCO2,5
CCOc1ccc2nc(SCC(=O)Nc3ccc([N+](=O)[O-])cc3)[nH]c2c1,1

# Next records:
SMILES,NOMO-1 viab
C[C@H]1CN([C@@H](C)CO)C(=O)c2cccc(NS(C)(=O)=O)c2O[C@@H]1CN(C)C(=O)Nc1ccc2c(c1)OCO2,9
COc1ccc(S(=O)(=O)Nc2ccc3c(c2)C(=O)N([C@H](C)CO)C[C@H](C)[C@@H](CN(C)Cc2ccc(-c4ccccc4)cc2)O3)cc1,39
Cc1cc(C(=O)Nc2cccc3c2O[C@@H](CN(C)C(=O)NC2CCCCC2)[C@@H](C)CN([C@H](C)CO)C3=O)n(C)n1,20
COc1ccccc1CNS(=O)(=O)c1cc(C)ccc1OC,-5
Cc1ccc(S(=O)(=O)N(C)C[C@@H]2Oc3ccc(NS(=O)(=O)c4ccc(Cl)cc4)cc3CC(=O)N([C@@H](C)CO)C[C@@H]2C)cc1,55
C[C@@H]1CN([C@H](C)CO)C(=O)Cc2cc(NS(=O)(=O)c3ccccc3)ccc2O[C@@H]1CN(C)C(=O)Nc1ccc(C(F)(F)F)cc1,3
C[C@H]1CN([C@@H](C)CO)C(=O)Cc2cc(NC(=O)Nc3ccc(C(F)(F)F)cc3)ccc2O[C@@H]1CN(C)C(=O)Nc1cccc2ccccc12,22
Cc1ccc(N(C(C)C(=O)Nc2ccc(Cl)cc2)S(C)(=O)=O)cc1C (centres undefined),52
CS(=O)(=O)N(CC(=O)Nc1ccccc1-c1ccccc1)c1ccc(Br)cc1,23
C[C@H](CO)N1C[C@H](C)[C@@H](CN(C)C(=O)Nc2cccc3ccccc23)Oc2c(NC(=O)Nc3ccccc3)cccc2C1=O,34
C=CCn1c2ccccc2c2nnc(SCC(=O)c3ccc(Cl)cc3)nc21,12
CN(CCc1ccccn1)c1ccc([N+](=O)[O-])cn1,22
Cc1ccc(S(=O)(=O)N(CC(N)=O)c2ccc(Cl)c(Cl)c2)cc1,34
C[C@@H]1CN([C@@H](C)CO)C(=O)c2cc(NC(=O)C3CCCCC3)ccc2O[C@@H]1CN(C)Cc1ccccc1,13
Cc1cc(C)c2c(=O)[nH]c(SCC(=O)NCc3ccccc3)nc2n1,17
C[C@@H]1CN([C@H](C)CO)C(=O)Cc2cc(NC(=O)NC3CCCCC3)ccc2O[C@H]1CN(C)S(=O)(=O)c1ccc(Cl)cc1,7
CN1C(=O)c2ccc(C(=O)Nc3ccc(OCC(=O)O)cc3)cc2C1=O,-12
S=C(NC1CCCCC1)C(=S)NC1CCCCC1,34
CCOC(=O)c1cnn2c(C(F)(F)F)cc(C)nc12,13
COC(=O)c1ccccc1NC(=O)Cc1coc2c(C)c(C)ccc12,25
COc1ccc(S(=O)(=O)N(C)C[C@@H]2Oc3ccc(NC(=O)CCN4CCOCC4)cc3CC(=O)N([C@H](C)CO)C[C@H]2C)cc1,3
C[C@@H]1CN([C@H](C)CO)C(=O)c2cc(NS(=O)(=O)c3ccc(Cl)cc3)ccc2O[C@H]1CN(C)S(C)(=O)=O,14
COc1ccc(S(=O)(=O)Nc2ccc3c(c2)CC(=O)N([C@@H](C)CO)C[C@@H](C)[C@@H](CN(C)S(=O)(=O)c2c(C)noc2C)O3)cc1,3
Cc1ccc(S(=O)(=O)N(C)C[C@H]2Oc3ccc(NC(=O)c4ccncc4)cc3CC(=O)N([C@@H](C)CO)C[C@@H]2C)cc1,-17
CC(C)(C)C1CCc2c(sc(NC(=S)NC(=O)c3cc4ccccc4o3)c2C(N)=O)C1 (centres undefined),17
C[C@@H]1CN([C@H](C)CO)C(=O)c2cc(NC(=O)Nc3ccc4c(c3)OCO4)ccc2O[C@H]1CN(C)S(=O)(=O)c1ccc(Cl)cc1,21
Cc1cc(C)c(NC(=O)CSc2nc(-c3ccccc3)c(-c3ccccc3)[nH]2)c(C)c1,101*
C[C@@H]1CN([C@H](C)CO)C(=O)c2cccc(NC(=O)Nc3cccc4ccccc34)c2O[C@@H]1CN(C)C(=O)Nc1ccccc1,22
C[C@H](CO)N1C[C@H](C)[C@@H](CN(C)Cc2ccncc2)Oc2c(NS(=O)(=O)c3ccccc3)cccc2C1=O,-6
Cc1ccc(S(=O)(=O)N(C)C[C@H]2Oc3c(NS(=O)(=O)c4ccc(Cl)cc4)cccc3C(=O)N([C@H](C)CO)C[C@@H]2C)cc1,17
C[C@@H]1CCCCO[C@@H](CN(C)C(=O)Cc2ccccc2)[C@@H](C)CN([C@H](C)CO)C(=O)c2cc(NS(=O)(=O)c3ccc(F)cc3)ccc2O1,27
Cn1cnnc1Sc1cc(C#N)c(C#N)cc1Sc1nncn1C,22
Nc1ccccc1Nc1c(N)c(=O)oc2ccccc12,34
C[C@H](CO)N1C[C@H](C)[C@H](CN(C)S(=O)(=O)c2ccccc2)Oc2ccc(NS(=O)(=O)c3cccs3)cc2CC1=O,-14
CC(C)NC(=O)Nc1ccc2c(c1)C(=O)N([C@@H](C)CO)C[C@@H](C)[C@@H](CN(C)Cc1ccc(C(=O)O)cc1)O2,-9
CC(=O)Nc1ccc(NC(=O)CSc2nnc3c4ccccc4n(C)c3n2)cc1,26
C[C@H](CO)N1C[C@H](C)[C@@H](CN(C)Cc2ccc(-c3ccccc3)cc2)Oc2c(NS(=O)(=O)c3ccc(Cl)cc3)cccc2C1=O,21
C[C@H](CO)N1C[C@H](C)[C@@H](CN(C)Cc2ccc3c(c2)OCO3)Oc2c(NS(C)(=O)=O)cccc2C1=O,27
COc1ccc(S(=O)(=O)Nc2ccc3c(c2)C(=O)N([C@@H](C)CO)C[C@H](C)[C@@H](CN(C)C(=O)NC(C)C)O3)cc1,-3
COc1ccc(S(=O)(=O)Nc2cccc3c2O[C@@H](CN(C)C(=O)Nc2ccc(F)cc2)[C@H](C)CN([C@@H](C)CO)C3=O)cc1,3
C[C@@H]1CN([C@@H](C)CO)C(=O)c2cccc(NS(=O)(=O)c3cccs3)c2O[C@@H]1CN(C)Cc1ccc(Oc2ccccc2)cc1,32
CS(=O)(=N/C=C(\C#N)S(=O)(=O)c1ccc(C(F)(F)F)cn1)c1ccc(Cl)cc1 (centres undefined),27
CC(=O)OCC/C(=C\CC1(O)C(C)CCC2C(C)(C)CCCC21C)COC(C)=O (centres undefined),56
C[C@@H]1CN([C@H](C)CO)C(=O)Cc2cc(NC(=O)C3CCCCC3)ccc2O[C@H]1CN(C)Cc1ccncc1,10
CCOc1c(S(=O)(=O)NCc2cccnc2)ccc(Cl)c1Cl,-6
Cc1ccc(S(=O)(=O)Nc2cccc3c2O[C@@H](CN(C)S(=O)(=O)c2ccc(Cl)cc2)[C@H](C)CN([C@H](C)CO)C3=O)cc1,-3
Cc1sc2ncn(CC(=O)Nc3c(C(C)C)cccc3C(C)C)c(=O)c2c1C,?
CCOc1ccc2nc(Nc3nc(C)c(CCC(C)C)c(=O)[nH]3)nc(C)c2c1,?
COc1ccc(CN(C)C[C@H]2Oc3c(NC(=O)Nc4ccc5c(c4)OCO5)cccc3C(=O)N([C@H](C)CO)C[C@@H]2C)cc1,35
CN1C(=O)C(Cc2ccccc2)(Cc2ccccc2)c2ccccc21,97*
# (next part)
SMILES,NOMO-1 viab
C[C@@H]1CN([C@H](C)CO)C(=O)c2cc(NC(=O)Cc3cn(C)c4ccccc34)ccc2O[C@@H]1CN(C)C(=O)Nc1ccc2c(c1)OCO2,5
COc1cc([N+](=O)[O-])ccc1NC(=S)NCc1cc(C)n(C)n1,3
C[C@@H]1CCCCO[C@H](CN(C)C(=O)Nc2ccc3c(c2)OCO3)[C@@H](C)CN([C@H](C)CO)C(=O)c2cc(NS(=O)(=O)c3ccc(Cl)cc3)ccc2O1,11
C[C@@H]1CN([C@@H](C)CO)C(=O)c2cc(NC(=O)Cc3cn(C)c4ccccc34)ccc2O[C@H]1CN(C)Cc1ccncc1,109*
C[C@@H]1CN([C@H](C)CO)C(=O)c2cccc(NC(=O)c3nc4ccccc4s3)c2O[C@H]1CN(C)C(=O)Nc1ccc2c(c1)OCO2,16
C[C@@H]1CCCCO[C@H](CN(C)C(=O)CCCN(C)C)[C@@H](C)CN([C@H](C)CO)C(=O)c2cc(NC(=O)Nc3cccc4ccccc34)ccc2O1,0
COc1ccc(NC(=O)Nc2nn(Cc3c(F)cccc3Cl)cc2Br)c(OC)c1,27

# From PubChem

# Only part of the results is shown; count on the stated rates, not on these rows.
